From PubChem BioAssay
GLA inh pH 4.5 – inhibitors of human alpha-galactosidase A at pH 4.5; 230,000 tested, under 10 active; activity change, negative = inhibition, % at 105 µM; purified enzyme, 4-MU-alpha-Gal fluorescence, pH 4.5; inconclusive = small, poorly fitted or top-dose-only inhibition, or a rising curve; inactive = flat fitted curve, though single readings scatter; no compound was filed as active;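 note: 0% = full activity with enzyme and -100% = basal without enzyme; dose as in the result columns while the protocol names 77 µM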
miR-21 FLuc – raises the signal of a miR-21 reporter | 340,000 tested, under 10 active | HeLa miR-21 FLuc reporter, luciferase, 48 h | Potency, µM (titrated, usually from 38.3 µM), inactives show at the highest dose reporter change, positive = more light; active = well fitted rising curve with a large enough effect; inconclusive = small, poorly fitted or top-dose-only effect; inactive = no such curve, though single readings can be large or run the other way;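 note: % of control where 0% means no effect; miR-21 action dims this reporter so a rising signal means less miR-21 action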
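Using DMEM plus 10% FBS, HeLa miR-21-FLuc cells are incubated with test compounds (final up to about 40uM) for 48 hours; firefly luciferase signal is then imaged following reagent-mediated lysis.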
Rango dissoc inh – prevents RanGTP from dissociating the Rango-importin beta complex | O95149+P62826 | 340,000 tested, 0.071% active | AID 540253 | Potency, µM (top dose mostly 46.1 µM), for the others: at the top dose activity change, negative = inhibition | Biochemical FRET Rango-importin beta, RanGTP-induced dissociation; active means falling FRET ratio curve, often poorly fitted, with flat reads before Ran was added; inconclusive means other falling curves, or compound fluorescence or quenching; inactive means flat or rising ratio curve;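 note: potency is the fitted concentration of half-maximal effect; % of control where 0% means no effect; nearly all actives have a fitted effect of over 45% in size; -100% = wells without RanGTP and RCC1; the record marks most hits as doubtful in a second field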
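Compounds preincubate 5 min with complex of recombinant Rango and importin beta in PBS with 1 mM DTT. Ran (0.6 uM) loaded with 2 mM GTP plus 0.2 uM RCC1 starts dissociation; FRET is recorded 45 min later.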
Rango complex inh – Rango-importin beta binding inhibition | Q14974 | Rango CFP/YFP FRET sensor + importin beta, 45 min | Potency, µM (titrated, usually from 92.2 µM), for the others: at the top dose inhibition of complex formation | 340,000 tested, 0.031% active; active = rising FRET ratio curve, often small or poorly fitted; inconclusive = mostly compound fluorescence or quenching in the first reads; inactive = flat curves in all reads;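 note: potency is the fitted concentration of half-maximal effect; 0% = DMSO wells and 100% = buffer wells lacking importin beta; nearly all actives have a fitted effect of over 15% in size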
Target sequence (Q14974 whole entry, looked up): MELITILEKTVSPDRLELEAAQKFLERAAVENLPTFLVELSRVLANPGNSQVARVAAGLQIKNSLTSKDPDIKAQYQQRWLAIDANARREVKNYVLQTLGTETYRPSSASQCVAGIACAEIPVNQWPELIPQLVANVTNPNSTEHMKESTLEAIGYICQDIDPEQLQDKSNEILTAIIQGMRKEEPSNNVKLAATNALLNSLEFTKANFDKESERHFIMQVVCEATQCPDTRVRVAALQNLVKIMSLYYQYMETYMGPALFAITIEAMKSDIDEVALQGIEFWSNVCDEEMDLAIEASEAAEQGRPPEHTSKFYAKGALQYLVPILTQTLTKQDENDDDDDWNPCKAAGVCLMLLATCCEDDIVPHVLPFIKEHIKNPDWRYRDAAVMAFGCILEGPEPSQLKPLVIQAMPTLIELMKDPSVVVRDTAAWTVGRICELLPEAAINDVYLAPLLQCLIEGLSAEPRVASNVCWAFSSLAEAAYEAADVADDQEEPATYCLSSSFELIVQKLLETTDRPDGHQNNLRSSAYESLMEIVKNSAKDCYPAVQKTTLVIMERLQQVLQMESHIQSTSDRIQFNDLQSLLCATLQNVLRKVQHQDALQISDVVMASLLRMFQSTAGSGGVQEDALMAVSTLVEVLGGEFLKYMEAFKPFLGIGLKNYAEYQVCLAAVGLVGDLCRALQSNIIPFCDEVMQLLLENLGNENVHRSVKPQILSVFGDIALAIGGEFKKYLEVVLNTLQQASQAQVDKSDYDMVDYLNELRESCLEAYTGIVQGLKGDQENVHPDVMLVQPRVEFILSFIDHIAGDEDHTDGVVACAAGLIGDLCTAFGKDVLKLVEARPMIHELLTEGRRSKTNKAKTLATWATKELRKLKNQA
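Inhibition scored from the CFP 486 nm/YFP 530 nm FRET ratio 45 min after adding 0.125 microM importin beta to 50 nM Rango biosensor preincubated 5 min with compound (room temperature, PBS with DTT, Tween-20, BSA). No-importin wells as positive control.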
Numbers without * were called inactive; ? = inconclusive; . = not tested or not shown; & = joins results of further samples.

SMILES	GLA inh pH 4.5	miR-21 FLuc	Rango dissoc inh	Rango complex inh
Cc1cc(C)nc(NC(=O)CSc2nn(-c3ccccc3)c(=S)s2)n1	2	-15%	-6%	-0.1%
O=c1[nH]c(=O)c2[nH]c(=S)n(-c3ccccc3)c2[nH]1	.	.	10%	2.1%
COC(=O)CNC(c1ccccc1)c1cc(C)ccc1NC(=O)CNC(=O)OCc1ccccc1 (stereo unspecified)	-7	7%	1%	-0.8%
CCOC(=O)c1cnc2c(cnn2C)c1NCCCn1ccnc1	3	0%	-8%	0.0%
COc1ccc(OC)c(NC(=O)C(=O)NCCC2=CCCCC2)c1	-12	-14%	22%	7.4%
CCc1cc2c(NC(C(=O)O)C(C)C)ncnc2s1 (stereo unspecified)	6	-8%	5%	-1.3%
COc1cc2c(cc1NC(=O)/C=C/c1ccccc1)oc1ccccc12	-2	-8%	-8%	-5.6%
CC(C)n1cnc2c(N(C)c3cccc(Cl)c3)nc(N(CCO)CCO)nc21	4	4%	0%	-1.8%
CC(C)(C)c1ccc(OCC(=O)N2CCN(c3ccccn3)CC2)cc1	.	.	0%	-4.7%
N#CCCn1cc(/C=N/NC(=O)c2ccncc2)c(-c2ccc(F)cc2)n1	3	-2%	-8%	-0.6%
O=C(N/N=C/c1ccc(-c2cccc(C(F)(F)F)c2)o1)c1ccccc1O	-6	-4%	-13%	-1.5%
CCN(CC)CCCCN1c2ccccc2Sc2ccccc21	.	8%	0%	1.1%
COc1cccc(-c2nc(CS(=O)(=O)CC(=O)Nc3ccccc3Br)c(C)o2)c1	.	0%	1%	2.9%
Clc1nc2ccccc2cc1-c1nnn(-c2ccccc2Br)n1	.	.	-14%	-2.1%
O=[N+]([O-])c1ccccc1S(=O)(=O)N1CCN(CC2CC3C=CC2C3)CC1 (stereo unspecified)	1	-4%	2%	-2.9%
CCCCn1c(N)c(N(CC(C)C)C(=O)CC2CCCCC2)c(=O)[nH]c1=O	.	.	3%	1.9%
CCC(=NNC(=O)c1cccc(S(=O)(=O)N2CCOCC2)c1)c1ccccc1	.	.	50%	4.5%
CC(Sc1nnnn1-c1ccccc1)C(=O)Nc1ccccc1-c1ccccc1 (stereo unspecified)	-3	0%	5%	-2.2%
NS(=O)(=O)c1ccc(N/N=C/c2ccncc2)cc1	.	-6%	-2%	-2.3%
O=C(NCc1cccnc1)c1ccc2c(c1)OCO2	0	-3%	7%	-1.4%

Reprinted from the part before: 2 entries, followed by the next part.
SMILES	GLA inh pH 4.5	miR-21 FLuc	Rango dissoc inh	Rango complex inh
NS(=O)(=O)c1ccc(N/N=C/c2ccncc2)cc1	.	-6%	-2%	-2.3%
O=C(NCc1cccnc1)c1ccc2c(c1)OCO2	0	-3%	7%	-1.4%
Cc1ccc(SCC(=O)Nc2ccc(N3CCN(C)CC3)c(F)c2)cc1	3	-45%	-12%	-0.1%
S=c1[nH]ccn1-c1ccc(Cl)cc1	-4	3%	-5%	-6.2%
O=C(NCCc1ccccc1)C1=COCCO1	.	.	-2%	-2.2%
O=C(O)c1ccc(NC(=S)NC(NC(=O)c2ccco2)C(Cl)(Cl)Cl)cc1 (stereo unspecified)	-4	-11%	0%	-3.4%
O=C(Nc1cc(Cl)ccn1)C1(c2ccccc2)CC1(Cl)Cl (stereo unspecified)	-9	16%	20%	1.4%
CCc1noc(C)c1C(=O)OC(C)C(=O)Nc1ccc(Cl)cn1 (stereo unspecified)	.	.	0%	1.8%
CN(Cc1cn[nH]c1-c1ccc2c(c1)OCO2)C1CCOCC1	2	-2%	-13%	-5.1%
O=C(COc1cccc(C(F)(F)F)c1)Nc1ccccc1N1CCCCC1	.	.	12%	-3.3%
CC(C)CNC(=O)C1CCN(CC2CCCCC2)CC1	.	0%	-5%	-2.0%
COc1ccc(CNC(=O)CN(C(=O)c2csnn2)c2cccc3c2CCCC3)cc1	.	6%	0%	-0.7%
O=C(CSc1nnc(-c2ccccc2)o1)NC(=O)Cc1ccccc1	.	.	-12%	-4.5%
CN(C)CCCNC(CC(=O)Nc1cccc([N+](=O)[O-])c1)C(=O)O (stereo unspecified)	0	0%	13%	-3.2%
Cc1nn(-c2ccccc2)c(C)c1NC(=O)COC(=O)c1ccc(NC(=O)CC#N)cc1	.	.	-17%	-5.4%
COc1ccc(NC(=O)c2ccc(-c3ccccc3C(F)(F)F)o2)cc1	-4	-42%	21%	0.7%
O=[N+]([O-])c1ccc(S(=O)(=O)Nc2ccc(-c3csc(-c4ccccc4)n3)cc2)cc1	-6	0%	.	.
CCOC(=O)c1[nH]c2cc(OC)c(OC)cc2c1NC(=O)CN1CCN(c2ccc(OC)cc2)C(C)C1 (stereo unspecified)	-2	17%	.	.
NC(=O)c1ccc(CN2CCc3ccccc3C2)cc1	.	-5%	4%	1.4%
COc1ccccc1-n1ccnc(SCC(=O)NCc2ccccc2)c1=O	.	.	-10%	-0.7%
CN(C)CCc1cc2c(c3c1ccc1ccccc13)OCO2	-9	21%	26%	5.5%
CCc1ccccc1NS(=O)(=O)c1ccc2[nH]cc(C(=O)NCC3CCCO3)c(=O)c2c1 (stereo unspecified)	4	2%	-6%	-0.2%
COc1ccc(N2CC(C(=O)NCCCN3CCOCC3)CC2=O)cc1 (stereo unspecified)	1	-2%	-9%	1.5%
CCCSc1nnc(CSc2ncccn2)n1C	-9	-11%	0%	0.2%
COc1ccc(Br)cc1CNC(=O)C1CCN(S(=O)(=O)N2CCC(C)CC2)CC1	-5	5%	0%	1.3%
Cc1nc(Nc2cccc(O)c2)c2c3c(sc2n1)CCC3	-4	4%	12%	-4.7%
Cc1ccc(NC(=O)/C=N/OCC(=O)NCc2ccccc2Cl)cc1	-5	-11%	7%	-2.0%
Cn1nc(C(=O)NCCc2ccc(Cl)cc2)c2c1-c1ccccc1S(=O)(=O)C2	.	13%	-13%	3.7%
CN(C)c1nc(=S)nc(NCc2ccccc2)[nH]1	8	-16%	-10%	0.1%
CC(C)N1CCN(CC#Cc2ccccc2)CC1CCO (stereo unspecified)	0	-7%	-24%	-1.7%
O=C(Nc1cccc(-c2nnc(-c3ccco3)o2)c1)C(c1ccccc1)c1ccccc1	-9	-9%	-4%	-0.8%
Cc1ccc(NC(=O)c2sccc2C)nc1	.	-27%	18%	-0.2%
O=S1(=O)CCOC[C@H](Cc2ccccc2)N1Cc1ccccc1	.	.	-1%	1.3%
Cc1cccc(C)c1NC(=S)N(CCN1CCCCCC1)Cc1ccco1	-13	1%	1%	0.0%
COc1ccc(/C=C/C(=O)OCC(=O)N2CCCCCC2)c(OC)c1	.	.	-1%	-2.5%
O=C(NCCN1CCOCC1)c1cc(-c2cccs2)on1	-1	-79%	5%	2.4%
CC(=O)NCCCOc1ccc([N+](=O)[O-])cc1Cl	7	-36%	-8%	-0.6%
CCOC(=O)c1sc2nc(SCC#N)n(CC3CCCO3)c(=O)c2c1C (stereo unspecified)	-5	-7%	-13%	-3.3%
COc1cc(-c2nc(-c3ccccc3)c(-c3cc([N+](=O)[O-])ccc3C)[nH]2)cc(OC)c1OC	-17	?	0%	4.0%
CCN(CC)c1ccc(/C=N/N2CCN(Cc3ccc(C)cc3)CC2)c(O)c1	-4	-1%	7%	0.1%
COC(=O)c1cccc(NC(=O)Nc2ccccc2OC)c1	-4	-32%	18%	-1.2%
COC(=O)CSc1ccsc1C(=O)O	2	2%	-8%	-1.4%
CNC(=O)c1[nH]cnc1C(=O)NCC(=O)OC(C)(C)C	.	5%	15%	2.9%
N#CC1(c2cccc(Br)c2)C(=O)Nc2ccccc21 (stereo unspecified)	.	.	4%	-1.6%
O=C(N/N=C/c1ccc(-c2ccccc2[N+](=O)[O-])o1)c1cccnc1	-3	-3%	-3%	-0.6%
COc1ccccc1/C=C/C=N/NC(=O)CCC1C(=O)NN=C1C (stereo unspecified)	-10	-7%	5%	-1.6%
O=S(=O)(c1ccc2ccccc2c1)N1CCN(C(=S)Nc2ccccc2F)CC1	-3	-2%	27%	0.6%
CCOCCCNC(=O)C(NC(=O)CNC(C)=O)c1ccc(C)cc1 (stereo unspecified)	2	-1%	1%	1.6%
CC(C)[C@H](NS(=O)(=O)c1ccc2c(c1)OCCO2)C(=O)OCC(=O)Nc1cccc(Cl)c1Cl	-9	-7%	8%	6.6%
O=C(C1=C(O)C(=O)N(Cc2ccco2)C1c1ccccc1F)c1cccs1 (stereo unspecified)	-10	1%	-8%	-1.4%
Cc1cc(=O)c(C(=O)O)nn1-c1cccc(C(F)(F)F)c1	.	0%	-8%	-1.1%
CSc1ccccc1N=CC1=C(O)CC(C)(C)CC1=O	4	-2%	-4%	0.6%
COc1cccc(NC(=O)NC2CCN(Cc3nnnn3Cc3ccc(F)cc3)CC2)c1	-5	-2%	-3%	-0.5%
CC(=O)N1CCN(c2ccc([N+](=O)[O-])c(NCc3cccnc3)c2)CC1	-17	-13%	11%	1.4%
CCCCNC(=O)CS(=O)Cc1nc(-c2ccc(C)cc2)oc1C (stereo unspecified)	2	-2%	?	3.0%
CCC(C(=O)NC1CCCCC1)N(Cc1cccs1)C(=O)c1snc(C(N)=O)c1N (stereo unspecified)	-9	2%	-14%	-2.4%
COC(=O)c1[nH]c2cccc(OC)c2c1NC(=O)CN1CCC(C(N)=O)(N2CCCCC2)CC1	4	-7%	-5%	0.2%
C#CCOCCOCCOCCNc1nc(N2CCN(C(=O)[C@H](C(C)C)n3cc(CCO)nn3)CC2)nc(N2CCN(C(=O)[C@H]([C@@H](C)CC)n3cc(CCCCN)nn3)CC2)n1	-1	-4%	5%	1.8%
COc1ccc(CN2CCC(n3nccc3NC(=O)C3CC3)CC2)c(OC)c1OC	.	1%	9%	2.6%
Cc1[nH]n2c(=O)cc(-c3ccc([N+](=O)[O-])cc3)nc2c1-c1ccccc1	.	.	10%	-2.3%
Cc1ccc(C(=O)Nc2cccc(C(F)(F)F)c2)cc1NC(=O)c1c[nH]c2cc(C(F)(F)F)ccc2c1=O	.	.	0%	0.5%
CCCCC1(C(=O)OC)NC(c2ccc(O)cc2)C2C(=O)N(c3ccccc3)C(=O)C21 (stereo unspecified)	.	-4%	-1%	-4.0%
COc1ccc(NC(=O)CC(NCc2ccccn2)C(=O)O)cc1 (stereo unspecified)	10	-2%	-7%	-0.1%
CCC(C(=O)NCc1ccccc1OC)n1nc(C)n2c(cc3occc32)c1=O (stereo unspecified)	2	2%&-5%	3%	-5.5%
O=C(O)CCC(=O)Nc1ccc(-c2nnc(-c3ccco3)o2)cc1	1	-4%	3%	0.2%

By substructure, the entries above containing a furan ring, fused or not.
SMILES	GLA inh pH 4.5	miR-21 FLuc	Rango dissoc inh	Rango complex inh
COc1cc2c(cc1NC(=O)/C=C/c1ccccc1)oc1ccccc12	-2	-8%	-8%	-5.6%
O=C(N/N=C/c1ccc(-c2cccc(C(F)(F)F)c2)o1)c1ccccc1O	-6	-4%	-13%	-1.5%
O=C(O)c1ccc(NC(=S)NC(NC(=O)c2ccco2)C(Cl)(Cl)Cl)cc1 (stereo unspecified)	-4	-11%	0%	-3.4%
COc1ccc(NC(=O)c2ccc(-c3ccccc3C(F)(F)F)o2)cc1	-4	-42%	21%	0.7%
O=C(Nc1cccc(-c2nnc(-c3ccco3)o2)c1)C(c1ccccc1)c1ccccc1	-9	-9%	-4%	-0.8%
Cc1cccc(C)c1NC(=S)N(CCN1CCCCCC1)Cc1ccco1	-13	1%	1%	0.0%
O=C(N/N=C/c1ccc(-c2ccccc2[N+](=O)[O-])o1)c1cccnc1	-3	-3%	-3%	-0.6%
O=C(C1=C(O)C(=O)N(Cc2ccco2)C1c1ccccc1F)c1cccs1 (stereo unspecified)	-10	1%	-8%	-1.4%
CCC(C(=O)NCc1ccccc1OC)n1nc(C)n2c(cc3occc32)c1=O (stereo unspecified)	2	2%&-5%	3%	-5.5%
O=C(O)CCC(=O)Nc1ccc(-c2nnc(-c3ccco3)o2)cc1	1	-4%	3%	0.2%

An excerpt (hit frequency here may not be typical).
